Screening data as filed in PubChem BioAssay.
gsp agonist = agonists of gsp mutant (McCune-Albright syndrome) | actives 0.13% (n = 340,000) | gsp mutant cells, cAMP HTRF, 30 min; control for the full effect not named in the record | Potency, µM (doses to about 76.9 µM), for inactives: top-dose activation (cAMP increase), most hits filed as activators; active = well fitted activation curve with a large enough effect; inconclusive = small, poorly fitted or top-dose-only effect, or another doubt; inactive = no such curve, though single readings can be large or run the other way; cell line not stated here;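 further: phosphodiesterase inhibitor Ro 20-1724 added with compounds to block cAMP breakdown; potency means the concentration at half of the fitted maximal effect; nearly all actives have a fitted effect of over 60% in size; about a fifth of the inactives were tested at one dose only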
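Cells in DMEM/10% FBS with G418 were pretreated with compounds in DMSO plus […] (300 uM stock) for 30 min at 37C. cAMP was measured by HTRF (cAMP-d2 plus anti-cAMP antibody-K) after 30 min at room temperature.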
TRPML1 inh = human mucolipin-1 channel inhibition | AID 624415 | actives 0.02% (n = 390,000) | activity change, negative = inhibition, % (concentration not given with the values) | Q9GZU1 | TRPML1-inducible cells, Ca2+ dye fluorescence, FDSS; active compounds read low; inhibition of EC80 agonist-evoked calcium signal; in the data active means activity change below about -50%; inconclusive means about -30% to -50%; inactive means above about -30%;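 further: stimulus is agonist 54-4 at its EC80 concentration; on the % scale 0 is the no-effect control and ±100 the full control effect; the text of the record puts the active cut at -80%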
Target sequence (Q9GZU1 whole entry, looked up): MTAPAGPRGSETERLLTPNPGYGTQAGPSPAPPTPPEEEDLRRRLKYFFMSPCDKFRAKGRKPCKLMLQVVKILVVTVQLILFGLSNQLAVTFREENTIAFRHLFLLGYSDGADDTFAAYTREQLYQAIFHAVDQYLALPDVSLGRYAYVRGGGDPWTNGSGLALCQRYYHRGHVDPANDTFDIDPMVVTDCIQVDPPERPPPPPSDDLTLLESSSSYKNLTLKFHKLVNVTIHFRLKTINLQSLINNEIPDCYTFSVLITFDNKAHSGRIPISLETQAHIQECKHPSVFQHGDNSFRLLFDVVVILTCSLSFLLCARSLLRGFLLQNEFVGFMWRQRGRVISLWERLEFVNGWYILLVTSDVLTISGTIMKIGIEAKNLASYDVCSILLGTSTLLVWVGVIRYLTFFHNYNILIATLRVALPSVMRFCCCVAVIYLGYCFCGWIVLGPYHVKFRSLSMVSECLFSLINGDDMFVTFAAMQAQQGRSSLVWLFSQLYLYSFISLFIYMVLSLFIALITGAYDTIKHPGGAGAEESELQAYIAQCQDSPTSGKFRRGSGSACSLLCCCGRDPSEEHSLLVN
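Tet-induced TRPML1-DL cells loaded with Ca8 no-wash calcium dye were read kinetically on FDSS. Compound addition was followed by EC80 agonist 54-4 (4 uM final); inhibition was read over 110 s.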
gsp antagonist = antagonists of gsp mutant (McCune-Albright syndrome) | actives 0.4% (n = 340,000) | gsp-mutant cells, cAMP HTRF, 30 min; control for the full effect not named in the record | Potency, µM (doses to about 76.9 µM), without a hit: at the highest dose activity change, negative = inhibition, most hits filed as inhibitors | AID 624288; active = falling curve of any shape with a large fitted effect; inconclusive = falling curve, mostly with a smaller effect; inactive = flat or rising curve; cell line not stated here;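 further: intracellular cAMP measured with PDE inhibitor Ro 20-1724 present during compound exposure; potency means the concentration at half of the fitted maximal effect; on the % scale 0 is the no-effect control and ±100 the full control effect; nearly all actives have a fitted effect of over 65% in size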
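Cells, 2000/well, grown 16–24 h in DMEM 10% FBS with 0.5 mg/ml G418, then compounds plus […] (300 uM addition stock), 30 min at 37C. cAMP read by HTRF (cAMP-d2 and anti-cAMP antibody-K in lysis buffer) after 30 min RT.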
Menin-MLL FL inh = displaces fluorescein MLL peptide from human menin | Fluorescence polarization, fluorescein-MLL peptide displacement from menin | FP activity change, % at 61.4 µM | 290,000 tested, under 10 active | AID 1766; inconclusive = falling polarisation curve, or a change in total fluorescence; inactive = total fluorescence flat and polarisation flat or rising; no compound was filed as active; the % refers to the polarisation; negative = inhibition;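 further: % of control where 0% means no effect; inhibitors lower the polarisation; unlabelled MLL peptide was the positive control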
TRPML1 agonist = agonists of human TRPML1 channel; Q9GZU1; TRPML1-expressing cells, Ca2+ dye fluorescence, FDSS; host cell line not named in the record; reference of the full effect not given here; activation, % (test concentration not listed); actives 0.12% (n = 410,000); in the data active = activation above about 50%; inconclusive = about 30% to 50%; inactive = below about 30%; further: 0% is about no effect; the text of the record puts the active cut at 80%
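Kinetic FDSS Ca2+ read in Tet-induced TRPML1-DL cells (ABD Ca8 dye plus quencher, 45-90 min RT loading): baseline, then compound, then 110 s agonist window; EC80 agonist 54-4 at 4uM final added afterwards for a 110 s antagonist window.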
ClpP mod = qHTS Assay for Activators of ClpP; purified B. subtilis ClpP, FRET peptide cleavage, 20 min; Potency, µM (highest dose often 57.5 µM), for the others: top-dose activity change, negative = active; actives 1.9% (n = 340,000); AID 651965, 2013; active = well fitted falling curve with a large enough effect; inconclusive = small, poorly fitted or top-dose-only effect; inactive = no such curve, though single readings can be large or run the other way; further: potency means the concentration at half of the fitted maximal effect; the source files actives as falling curves though it sought activators and does not explain the sign; nearly all actives have a fitted effect of over 65% in size; many hits overshoot -100%
Target sequence (P80244 whole entry, looked up): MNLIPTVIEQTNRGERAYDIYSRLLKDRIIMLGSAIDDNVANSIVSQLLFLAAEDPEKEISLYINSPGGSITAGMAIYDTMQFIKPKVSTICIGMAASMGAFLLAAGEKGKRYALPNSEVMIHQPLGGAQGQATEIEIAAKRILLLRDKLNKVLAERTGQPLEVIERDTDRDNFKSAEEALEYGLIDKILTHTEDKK
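Buffer: 100 mM Tris/HCl pH8, 100 mM KCl, 0.05% low protease BSA, 2.5% glycerol, 0.01% Tween-20. ClpP 10 microg/mL final; 20 min RT; delta FRET normalized to ADEP and DMSO controls.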
The depositor's hits bear a star; ? = inconclusive; nt = no result given; & = joins results of further samples; [ ] = dose if it differs, or a comment.

Second line of a record – gsp agonist | TRPML1 inh | gsp antagonist | Menin-MLL FL inh | TRPML1 agonist | ClpP mod
[1] Cc1ccc(-c2cc(=O)c3ccccc3[nH]2)cc1
    -24% | -6 | -3% | 3.3[138 µM] | -0.8 | -16%
[2] Cc1ccc(S(=O)(=O)N(CC(=O)Nc2ccc(F)cc2)C(=O)N2CCN(C)CC2)cc1
    -1%[15.4 µM] | -6 | 15% | nt | 0.4 | 1.3%
[3] Cc1ccc(Cl)cc1N1CCN(S(=O)(=O)c2cc3[nH]c(=O)c(=O)[nH]c3cc2C)CC1
    nt | 9 | nt | nt | 2.6 | -27%
[4] Cc1ccc(NC(=O)NNC(=O)C2CCN(Cc3ccc(F)cc3Cl)CC2)cc1
    -26% | -12 | 2% | -3.4 | 0.1 | -2.1%
[5] O=C(CN1C(=O)c2ccccc2C1=O)N1CCN(S(=O)(=O)c2ccccc2)CC1
    -8% | -8 | 6% | nt | -0.3 | 0.9%
[6] Cc1ccccc1C(=O)Nc1cccc(C(=O)OCc2cc(=O)n3ccsc3n2)c1
    nt | 0 | nt | nt | -0.5 | -10%
[7] COc1ccccc1-c1nnc(SCC(=O)Nc2ccc(Cl)cc2Cl)o1
    -61%[inhibitor] | 3 | -13% | 4.8 | 0.1 | -0.5%
[8] COc1ccccc1NC(=O)COc1ccc2ccccc2c1
    15% | 36 | -20% | 5.7 | 4.7 | -5.4%
[9] CCOC(=O)c1c(C)[nH]c(C)c1C(=O)COC(=O)CCc1ccccc1
    1% | -6 | -8% | nt | 1.1 | 0.3%
[10] O=C(C[n+]1cc(-c2ccccc2)n2c1CCCCC2)c1ccc(Cl)cc1
    -1% | 5 | 3% | -5.5 | -0.2 | nt
[11] COc1ccccc1NC(=O)c1ccc(CN(c2cc(Cl)ccc2C)S(=O)(=O)c2ccccc2)cc1
    -10% | -5 | 3% | 0.4 | -0.6 | 25%
[12] Cc1ccccc1Cn1cc(NC(=O)c2cc(-c3ccc(Cl)cc3)on2)cn1
    nt | -16 | nt | nt | 0.1 | 4.5%
[13] NS(=O)(=O)c1ccc(CCNC(=O)CN2C(=O)c3ccccc3S2(=O)=O)cc1
    0%[15.4 µM] | 0 | -1% | nt | 0.2 | ?
[14] O=C(Nc1cccc(C(F)(F)F)c1)c1cnn(-c2cccc(F)c2)c1C1CCNCC1
    nt | 3 | nt | nt | -0.9 | 1.9%
[15] Nn1c(SC/C=C/c2ccccc2)nnc1-c1ccco1
    7% | 19 | 0% | 2.3 | -1.3 | -0.9%
[16] CCOC(=O)Cc1csc(NC(=O)CSc2ncnc3c2cnn3-c2ccccc2Cl)n1
    -18% | -19 | ? | 1.6 | -0.3 | -1.1%
[17] COC(=O)c1cccc(Cn2nnc3ccccc3c2=O)c1
    ? | 13 | 11% | 5.4 | 0.8 | -1.2%
[18] O=C(Nc1nc2n(n1)C(c1ccc(F)cc1)C=C(c1ccc(Cl)cc1)N2)c1ccc([N+](=O)[O-])cc1 (centres undefined)
    nt | -2 | nt | nt | -1.0 | -2.4%
[19] CCOC(=O)c1c(-c2ccccc2)csc1NC(=S)NC
    ? | -1 | ? | 5.8 | 2.2 | 1.1%
[20] COc1cccc(C(=O)Nc2cc(S(=O)(=O)N3CCOCC3)ccc2N2CCOCC2)c1
    7% | -8 | ? | nt | 1.7 | -2.6%
[21] COc1ccc(CCNC(=O)CNC(=O)N2CC(=O)Nc3ccccc32)cc1
    29% | 1 | nt | nt | 0.0 | -1.4%
[22] O=S(=O)(c1ccc(NC(=S)NCc2ccco2)cc1)N1CCCCC1
    14%[15.4 µM] | 3 | -6% | 2.0 | -1.1 | nt
[23] O=C(CCNS(=O)(=O)c1ccc(Cl)cc1)NCCc1ccccc1
    21% | 0 | nt | nt | -0.8 | -1.7%
[24] COc1ccc(OC)c(NC(=O)CSc2nnnn2C)c1
    8% | -7 | 7% | 3.4 | 2.2 | 1.2%
[25] COC(=O)c1cc2c(ccc3ccccc32)oc1=O
    3% | -6 | -7% | nt | 0.7 | 3.9%
[26] COc1ccc(S(=O)(=O)NCC(c2ccco2)N2CCN(c3ccccc3F)CC2)cc1OC (centres undefined)
    nt | -18 | nt | nt | 2.9 | 2.4%
[27] O=C(CCC(=O)N(CC(=O)NC1CCCC1)Cc1ccccc1Cl)Nc1nccs1
    19% | 15 | -1% | 0.6 | 0.4 | nt
[28] COc1ccc(CCN2CCCn3c2nc2c3c(=O)[nH]c(=O)n2C)cc1OC
    ? | 10 | -14% | 1.3 | -0.1 | 0.2%
[29] CCOc1nc(NC(=O)NS(=O)(=O)Oc2cccc(Cl)c2)nc(-c2ccccc2)n1
    19% | -14&-20 | -11% | 11 | 0.5&2.2 | -4.8%&0.1%
[30] Cc1ccc(O)c(Cc2cc(C)cc(Cc3cc(C)ccc3O)c2O)c1
    ? | 4 | nt | nt | 1.0 | -6.1%

A second format for part of the listing above:
# | SMILES | gsp agonist | TRPML1 inh | gsp antagonist | Menin-MLL FL inh | TRPML1 agonist | ClpP mod
27 | O=C(CCC(=O)N(CC(=O)NC1CCCC1)Cc1ccccc1Cl)Nc1nccs1 | 19% | 15 | -1% | 0.6 | 0.4 | nt
28 | COc1ccc(CCN2CCCn3c2nc2c3c(=O)[nH]c(=O)n2C)cc1OC | ? | 10 | -14% | 1.3 | -0.1 | 0.2%
29 | CCOc1nc(NC(=O)NS(=O)(=O)Oc2cccc(Cl)c2)nc(-c2ccccc2)n1 | 19% | -14&-20 | -11% | 11 | 0.5&2.2 | -4.8%&0.1%

Going on with the list.
Second line of a record – gsp agonist | TRPML1 inh | gsp antagonist | Menin-MLL FL inh | TRPML1 agonist | ClpP mod
[31] CCC(C(=O)Nc1cc(OC)c(NC(=O)c2ccccc2)cc1OC)c1ccccc1 (centres undefined)
    ? | -4 | -10% | 0.6 | 0.4 | nt
[32] COC(=O)c1ccc(CN2CCN(CCC(C)C)C(CCO)C2)cc1 (centres undefined)
    ? | 18 | 8% | 0.8 | 0.1 | -0.1%
[33] CCN(CC(=O)NC1CCS(=O)(=O)C1)S(=O)(=O)c1ccc(Cl)c(C(F)(F)F)c1 (centres undefined)
    -9% | -7 | -9% | nt | -0.2 | -0.7%
[34] S=C(NCc1ccco1)N/N=C/c1cccnc1
    10% | 10 | 6% | -1.4 | -0.7 | -1.3%
[35] CCn1c(C)c(C)c2cc(C(=O)NCCc3ccco3)ccc21
    ? | 3 | -2% | 0.3 | 0.8 | -15%
[36] N#Cc1ccc(NC(=O)COCc2cc(-c3ccc4c(c3)OCO4)on2)cc1
    nt | -6 | nt | nt | 2.1 | -0.5%
[37] Fc1ccccc1/C=N/n1c(-c2cccnc2)n[nH]c1=S
    0%[15.4 µM] | 21 | 28µM* | 0.5 | 0.1 | -3.7%
[38] CCc1ccc(C(=O)CC2(O)C(=O)N(Cc3ccc(C)cc3)c3ccccc32)cc1 (centres undefined)
    nt | -9 | nt | nt | 0.1 | -8.1%
[39] Cn1c(OCc2cccnc2)nc2c1c(=O)n(Cc1ccc(Br)cc1)c(=O)n2C
    -2% | 7 | -20% | -1.6 | 2.4 | 1.0%
[40] CN(CCNC(=O)C1CCN(S(=O)(=O)N2CCOCC2)CC1)CCc1ccccc1
    5% | -6 | -1% | -0.5 | 1.1 | 1.4%
[41] CC(=O)c1ccc(NC(=S)N2CCN(c3ccccn3)CC2)cc1
    13% | 5 | -2% | 0.3 | 1.1 | nt
[42] CN(CC1COc2ccccc2O1)C(=S)Nc1ccccc1 (centres undefined)
    16% | -15 | 7% | nt | -0.8 | -3.4%
[43] CC1CCCN(C(=O)CN(C)S(=O)(=O)c2cccc3nsnc23)C1 (centres undefined)
    15% | 36 | -25% | 8.6 | -0.9 | 1.3%
[44] O=C(Nc1ccccc1)Nc1ccc(O)c2ccccc12
    -37%[inhibitor] | 13 | 6% | nt | 0.3 | ?
[45] COc1ccc(C(=O)NCc2nnc(SCC(=O)Nc3ccccc3F)o2)cc1
    17% | -22 | -26% | 0.7 | 1.0 | 1.9%
[46] CCC(=O)N1CCc2cc(Br)cc(S(=O)(=O)NCCCN(C)Cc3ccccc3)c21
    -1%[15.4 µM] | 15 | 6% | 1.2 | 1.2 | nt
[47] CCOc1cc(/C=N/n2nnnc2N)ccc1OCc1c(C)no[n+]1[O-]
    4% | 11 | 4% | 2.4 | 1.0 | -12%
[48] COCc1c(C(=O)Nc2nc(C)cs2)oc2ccccc12
    13% | 8 | -4% | -3.1 | 1.7 | -2.2%
[49] Cc1cc(C)cc(NC(=O)CSc2nc3c(cnn3-c3ccc(F)cc3)c(=O)[nH]2)c1
    nt | 24 | nt | nt | -0.8 | -0.4%
[50] COc1ccc(N2CCN(C(=O)c3ccc(CNS(=O)(=O)c4cc(C)ccc4C)cc3)CC2)cc1
    -54%[inhibitor] | 8 | -22% | nt | 1.0 | -3.4%
[51] O=C(CCOc1ccccc1)Nc1ccnn1C1CCN(Cc2ccc(F)cc2)CC1
    -71%[inhibitor] | -12 | -3% | nt | 0.7 | 1.2%
[52] O=C1CN(C(=O)c2cccc(Br)c2)c2ccccc2N1
    -2%[15.4 µM] | 2 | -2% | -1.1 | -0.2 | -2.8%
[53] Cc1cc(-c2ccccc2)n(-c2ccc(C(N)=O)cc2)n1
    -11% | 12 | -4% | 7.1 | -0.7 | 1.9%
[54] C=CC#CC1(O)CC(C)[N+](C)(C)CC1C (centres undefined)
    -23%[15.4 µM] | -6 | 4% | -2.2 | -0.9 | -1.8%
[55] COc1ccc(NC(=O)C(c2ccc(C)cc2)N(C)C(=O)/C=C\c2ccc3c(c2)OCO3)cc1 (centres undefined)
    nt | 2 | nt | nt | -0.1 | -0.5%
[56] COc1cccc(NC(=O)c2nnn(Cc3ccc(Br)cc3F)c2N)c1
    ? | -22 | 7% | 2.9 | 7.2 | 10%
[57] Cc1ccc(C)c(CN2C(=O)COc3ccc(C(=O)c4ccccc4C(=O)O)cc32)c1
    ? | -12 | -1% | -6.4 | 0.9 | nt
[58] COc1ccc(NC(=O)c2cc(C3CCCCN3S(=O)(=O)c3cccs3)on2)c(C)c1 (centres undefined)
    nt | 17 | nt | nt | -0.4 | -0.5%
[59] CSC[C@H](NC(=O)COc1cc2c(c3oc(=O)cc(C)c13)CCC(C)(C)O2)C(=O)O
    ? | -7 | 10% | -1.5 | 1.7 | 3.3%
[60] Cc1ccc(CCNC(=O)C2CCCN(S(=O)(=O)N3CC(C)CC(C)C3)C2)cc1 (centres undefined)
    6% | 24 | 7% | -0.4 | 2.0 | -5.0%

Entries listed so far marked active in gsp antagonist:
no.	Molecule	gsp agonist	TRPML1 inh	gsp antagonist	Menin-MLL FL inh
37	Fc1ccccc1/C=N/n1c(-c2cccnc2)n[nH]c1=S	0%[15.4 µM]	21	28µM*	0.5
